gsp antag: qHTS for Antagonists of gsp, the Etiologic Mutation Responsible for Fibrous Dysplasia/McCune-Albright Syndrome: qHTS; 340,000 tested, 0.4% active; gsp-mutant cells, cAMP HTRF, 30 min; control for the full effect not named in the record; AID 624288, 2012; Potency, µM (doses to about 76.9 µM), inactives show at the top dose activity change, negative = inhibition, most hits filed as inhibitors; active = falling curve of any shape with a large fitted effect; inconclusive = falling curve, mostly with a smaller effect; inactive = flat or rising curve; cell line not stated here;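 note: intracellular cAMP measured with PDE inhibitor Ro 20-1724 present during compound exposure; potency is the fitted concentration of half-maximal effect; % is set by controls: 0 for no effect and ±100 for the full control effect; nearly all actives have a fitted effect of over 65% in size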
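Cells, 2000/well, grown 16–24 h in DMEM 10% FBS with 0.5 mg/ml G418, then compounds plus […] (300 uM addition stock), 30 min at 37C. cAMP read by HTRF (cAMP-d2 and anti-cAMP antibody-K in lysis buffer) after 30 min RT.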
D2 potentiator: Beta-Arrestin HTS for Positive Allosteric Modulators of the Human D2 Dopamine Receptor: Potentiators | D(2) dopamine receptor (Homo sapiens), P14416 | 360,000 tested, 0.23% active | potentiation, % (concentration not given with the values) | DiscoveRx D2 beta-arrestin cells, luminescence, 90 min; 100% = 57 uM dopamine signal; active = potentiation of 50% or more; inconclusive = 30% to 50%; inactive = 30% or less;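 note: compound concentration not given in the record; tested on top of an EC20 dose of dopamine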
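D2 cells co-treated with compound plus 50 nM dopamine (EC20) for 90 min at 37 deg C to detect potentiation. Beta-arrestin recruitment was read as enzyme-fragment luminescence after 1 h at ambient temperature. Full response was set by 57 uM dopamine.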
Six1-Eya2 inh: qHTS Assay for Inhibitors of the Six1/Eya2 Interaction; AlphaScreen GST-Six1/His-Eya2 binding, biochemical; active compounds read low; control for the full effect not named in the record; activity change, % (no concentration beside the values); 360,000 tested, 0.56% active; AID 651725, 2012; in the data active = activity change below about -65%; inconclusive = about -30% to -65%; inactive = above about -30%; note: % is set by controls: 0 for no effect and ±100 for the full control effect
Target sequence (O00167 whole entry, looked up): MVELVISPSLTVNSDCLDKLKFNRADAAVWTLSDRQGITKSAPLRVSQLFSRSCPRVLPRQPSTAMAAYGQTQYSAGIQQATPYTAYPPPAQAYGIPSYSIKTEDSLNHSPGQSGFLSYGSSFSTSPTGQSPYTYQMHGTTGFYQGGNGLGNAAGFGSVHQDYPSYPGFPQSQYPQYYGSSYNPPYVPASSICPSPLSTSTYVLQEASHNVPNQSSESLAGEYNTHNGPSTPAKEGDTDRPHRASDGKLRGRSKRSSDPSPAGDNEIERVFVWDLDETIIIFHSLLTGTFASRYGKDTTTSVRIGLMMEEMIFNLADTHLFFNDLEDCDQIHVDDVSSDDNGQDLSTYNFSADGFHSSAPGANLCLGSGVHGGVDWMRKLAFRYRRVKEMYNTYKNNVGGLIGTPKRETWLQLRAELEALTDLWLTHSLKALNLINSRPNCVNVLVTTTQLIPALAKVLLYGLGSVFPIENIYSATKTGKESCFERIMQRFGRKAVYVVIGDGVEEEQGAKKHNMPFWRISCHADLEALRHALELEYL
Target sequence (Q15475 whole entry, looked up): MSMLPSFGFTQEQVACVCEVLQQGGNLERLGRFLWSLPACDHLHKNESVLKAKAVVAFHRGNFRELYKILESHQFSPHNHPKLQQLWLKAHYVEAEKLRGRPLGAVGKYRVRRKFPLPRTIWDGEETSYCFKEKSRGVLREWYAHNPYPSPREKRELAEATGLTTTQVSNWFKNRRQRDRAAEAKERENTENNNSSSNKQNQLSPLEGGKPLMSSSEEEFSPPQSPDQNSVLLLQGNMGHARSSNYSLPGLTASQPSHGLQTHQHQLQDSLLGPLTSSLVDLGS
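GST-Six1 + His-Eya2 (5X stock: 250/500 nM); Tris pH 8.0, 300 mM NaCl, 0.05% BSA, 0.02% Tween 20; GSH donor/Ni acceptor beads; 1 h 37 °C dark; AlphaScreen readout.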
CtBP-E1A inh: qHTS Assay for Inhibitors of the CtBP/E1A Interaction | CtBP / adenovirus E1A interaction (AlphaScreen) | AlphaScreen GST-E1A/His-CtBP binding, 1536-well; active compounds read low; control for the full effect not named in the record | activity change, % (concentration not given with the values) | 340,000 tested, 0.49% active | AID 651724, 2012; in the data active means activity change below about -65%; inconclusive means about -30% to -65%; inactive means above about -30%; note: % is set by controls: 0 for no effect and ±100 for the full control effect
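GST-E1A and His-tagged CtBP (125 nM each as 5X stock) were preincubated with pin-transferred compound for 2 h at 37 °C in the dark, then glutathione donor and nickel acceptor beads were added for 1 h before AlphaScreen reading.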
D2 agonist: Beta-Arrestin HTS for Positive Allosteric Modulators of the Human D2 Dopamine Receptor: Agonists. D(2) dopamine receptor (Homo sapiens), P14416. DiscoveRx PathHunter D2 beta-arrestin, luminescence, 90 min; 100% = 57 uM dopamine signal. activation, % (test concentration not listed). 360,000 tested, 0.084% active; in the data active = activation above about 40%; inconclusive = about 15% to 40%; inactive = below about 15%; note: compound concentration not given in the record; the text of the record calls up to 30% inactive
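DiscoveRx PathHunter D2 beta-arrestin cells (2,100/well) attached overnight, then compound-stimulated 90 min at 37 C in HBSS/10 mM HEPES/0.1% Tween-20 buffer; beta-galactosidase complementation read by luminescence after 1 h at ambient temperature. Dopamine 57 uM final (EC100) as control.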
gsp ag: qHTS for Agonist of gsp, the Etiologic Mutation Responsible for Fibrous Dysplasia/McCune-Albright Syndrome: qHTS; gsp mutant cells, cAMP HTRF, 30 min; control for the full effect not named in the record; Potency, µM (titrated, usually from 76.9 µM), inactives show at the highest dose activation (cAMP increase), usual class: activators; 340,000 tested, 0.13% active; AID 624287, 2012; active = well fitted activation curve with a large enough effect; inconclusive = small, poorly fitted or top-dose-only effect, or another doubt; inactive = no such curve, though single readings can be large or run the other way; cell line not stated here;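 note: phosphodiesterase inhibitor Ro 20-1724 added with compounds to block cAMP breakdown; potency is the fitted concentration of half-maximal effect; nearly all actives have a fitted effect of over 60% in size; about a fifth of the inactives were tested at one dose only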
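Cells stably selected in G418 were plated at 2000/well, grown 16-24 hr, then given compounds in DMSO with the PDE inhibitor […] (300 uM solution added) for 30 min at 37C; cAMP was read by HTRF.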
Starred values were filed as active, the others as inactive; ? = inconclusive; nt = no result given; [ ] = remark or other dose.

Preview (three entries):
SMILES | gsp antag | D2 potentiator | Six1-Eya2 inh | CtBP-E1A inh | D2 agonist | gsp ag
CS(=O)(=O)CCC(C(=O)N1CCOCC1)N1C(=O)c2cc(Cl)c(Cl)cc2C1=O (stereo not given) | 8% | 0 | -1 | 0 | -3.8 | 5%
COC(=O)c1c(C)noc1-c1cc(C)on1 | 4% | 5 | 24 | -5 | 0.2 | 4%
CCOC(=O)C1=C(C)N=c2s/c(=C3/C(=O)Nc4ccccc43)c(=O)n2C1c1ccc(C)cc1 (stereo not given) | 9% | -18 | -17 | -14 | -4.6 | -20%

This part in full, repeating the preview:
SMILES | gsp antag | D2 potentiator | Six1-Eya2 inh | CtBP-E1A inh | D2 agonist | gsp ag
CS(=O)(=O)CCC(C(=O)N1CCOCC1)N1C(=O)c2cc(Cl)c(Cl)cc2C1=O (stereo not given) | 8% | 0 | -1 | 0 | -3.8 | 5%
COC(=O)c1c(C)noc1-c1cc(C)on1 | 4% | 5 | 24 | -5 | 0.2 | 4%
CCOC(=O)C1=C(C)N=c2s/c(=C3/C(=O)Nc4ccccc43)c(=O)n2C1c1ccc(C)cc1 (stereo not given) | 9% | -18 | -17 | -14 | -4.6 | -20%
O=c1[nH]c2cc3c(cc2cc1C(c1nnnn1CC1CCCO1)N1CCCCCC1)OCCO3 (stereo not given) | 5% | 1 | -1 | -1 | -0.4 | -10%
COc1ccccc1-c1nc2ccccc2nc1-c1ccccc1 | -6% | 3 | 8 | 17 | -4.6 | ?
COc1ccc(-c2cc3c(=O)n(CC(=O)N4CCCC4)ncn3n2)cc1 | 20% | 6 | 2 | -15 | -2.6 | 21%
COc1cc(/C=N/NC(=O)C2c3ccccc3Oc3ccccc32)ccc1O | -20% | 9 | -1 | -3 | 2.0 | 6%
CC1=C(C(=O)OCc2ccccc2)C(c2ccccc2OS(=O)(=O)c2ccc(C)cc2)NC(=O)N1CCCC(=O)O (stereo not given) | -9% | 0 | -8 | 0 | 4.0 | -4%
COC(=O)c1cc(S(=O)(=O)NCc2cccc(OC)c2)cn1C | 4% | -4 | 6 | -6 | -1.1 | ?
CSc1ccc(S(=O)(=O)NCC(=O)OCC(=O)NCc2ccco2)cc1[N+](=O)[O-] | -2% | -18 | 6 | -3 | -2.3 | -16%[15.4 µM]
O=C(NC1CCN(C(=S)NCc2ccco2)CC1)C1CCCCC1 | -9% | 7 | 0 | 1 | 0.7 | 1%
COc1ccccc1CNC(=O)COC(=O)C12CC3CC(CC(O)(C3)C1)C2 | 0% | -1 | 5 | nt | 8.3 | -14%
CC(=O)Oc1ccc(N(C(C)=O)S(=O)(=O)c2ccccc2)c2ccccc12 | nt | 16 | 0 | -3 | 10 | 6%
Cc1ccccc1C(=O)NC(=S)Nc1ccc(Cc2ccncc2)cc1 | 7% | -2 | -1 | -2 | -4.3 | 0%
COCCCNC(=O)c1ccc(OC)c(OC2CCN(C(C)C)CC2)c1 | 50µM* | -3 | 6 | -9 | -5.7 | 20%
O=C(CN1CCOCC1)Nc1ccc(F)cc1 | 3% | -3 | 1 | nt | 2.6 | -13%
CCCC12CN3CC(C)(CN(C1)C3c1ccc(OC)cc1)C2=O (stereo not given) | 3% | -12 | -21 | 1 | -0.8 | ?
CC(=O)N/C(=C/c1ccc(OS(=O)(=O)c2ccc(C)cc2)cc1)C(=O)NCCO | 3% | -17 | -2 | 13 | 2.5 | 4%
CCCN1CC=C2C(C#N)=C(N)C(C#N)(C#N)C(c3cc(OC)ccc3OC)C2C1 (stereo not given) | -12% | -37 | -19 | -4 | -4.5 | ?
C=C1C(C(=O)Nc2ccc(OC)cc2)C1C(=O)Nc1ccc(OC)cc1 (stereo not given) | 9% | -1 | 5 | 3 | -2.8 | -8%[15.4 µM]
COc1ccc(CCc2cc(OC)c(OC)c(OC)c2)cc1 | 0% | -7 | 20 | -3 | 6.0 | 16%
Cn1ccc(C(=O)Nc2ccc3c(c2)OCCO3)n1 | 7% | 4 | 3 | 5 | 3.4 | 30%
COc1ccc(-c2ccc(=O)[nH]n2)cc1 | 5% | -5 | -2 | -6 | -3.1 | -36%[inhibitor]
COc1ccc(C2NC(=O)CCC2[N+](=O)[O-])c(OC)c1 (stereo not given) | 14% | -3 | 6 | 3 | 0.0 | -69%[inhibitor]
COc1cc(S(=O)(=O)NCCCn2ccnc2)ccc1Cl | 17% | -3 | 1 | 9 | -4.0 | ?

Next part
SMILES | gsp antag | D2 potentiator | Six1-Eya2 inh | CtBP-E1A inh | D2 agonist | gsp ag
CCCCn1cnc2sc(-c3ccccc3)cc2c1=O | -13% | -7 | 9 | 9 | -3.0 | -1%
COc1ccccc1NC(=O)CCCCC(=O)Nc1ccccc1OC | -1% | -16 | 7 | -6 | 4.0 | -15%[15.4 µM]
COc1ccc(-c2noc(CN(C)C(=O)CCN3C(=O)[C@H]4CC=CC[C@H]4C3=O)n2)cc1 | 9% | -5 | 1 | 4 | 0.0 | 14%
CCCN(CC(=O)Nc1ccccc1C)C(=O)COc1ccc2c(c1)CCC2 | -10% | -14 | -1 | 1 | -0.3 | 1%
CN1CCN(C(=O)c2ccccc2N(Cc2ccccc2)S(=O)(=O)c2ccccc2)CC1 | 9% | -10 | -3 | -9 | 1.4 | ?
CCC(=O)NC(=S)Nc1ccc(N2CCOCC2)cc1 | 5% | 0 | 3 | 0 | 2.9 | -2%
CC(C)Oc1ccc(CSc2nnc3n(C)c(=O)c4c5c(sc4n23)CCCC5)cc1 | -2% | -4 | -6 | 6 | -4.4 | -44%[inhibitor]
NC(=O)CC(NC(=O)Cc1ccc(Br)cc1)c1ccc(NCCc2ccc(F)cc2)c([N+](=O)[O-])c1 (stereo not given) | 5% | -14 | -6 | nt | -0.1 | 20%
CC(C)(C)CNC(=O)C1(C)CCN1C(=O)C1(c2ccccc2)CC1 (stereo not given) | nt | -9 | 3 | 9 | -5.6 | nt
CN(C(=O)c1ccccn1)c1nnc(-c2cccnc2)s1 | -19% | -4 | -11 | -2 | 0.0 | -15%
COc1ccc(CNC(=O)C2CCC(=O)N(C3CCCCCC3)C2)c(OC)c1 (stereo not given) | nt | -7 | -1 | -2 | -1.4 | -3%
Cc1cccnc1C(NC(=O)C1CCN(CCCOc2ccccc2)CC1)c1ccc(F)cc1 (stereo not given) | nt | -20 | 2 | -14 | -7.1 | nt
O=C(NCCC(=O)N1CCC2(CC1)NCCc1[nH]cnc12)c1ccc(Br)cc1 | 15% | -5 | 0 | -2 | -0.7 | ?
COc1ccc(CNC(=O)C[C@H]2C[C@H](C(=O)N3CCOCC3)[C@@]3(C)c4[nH]c5cc(-c6ccco6)ccc5c4CCN3C2=O)cc1OC | -14% | -4 | -11 | -11 | -1.0 | nt
COc1ccccc1OCC(=O)Nc1cc(C(F)(F)F)ccc1-n1cncn1 | 7% | -5 | 1 | 7 | -3.4 | 11%[15.4 µM]
CC(C)NC(=O)COC(=O)c1cccc(NS(=O)(=O)/C=C/c2ccccc2)c1 | -1% | -30 | 2 | 2 | -6.5 | 0%
O=C(N/N=C/C=C/c1ccc(Br)cc1)C(O)c1ccccc1 (stereo not given) | -2% | -10 | 6 | nt | 0.6 | -1%
CCN1CCN(c2ccc(NC(=O)c3cccc(OCc4ccccc4)c3)cc2)CC1 | 6% | -23 | -6 | -3 | -5.7 | -6%
Oc1cc(O)c2c(c1)OC(c1ccc(O)c(O)c1)C(O)C2 (stereo not given) | 0% | 12 | -6 | -1 | 0.5 | nt
O=C(Nc1ccc(-c2nnn(CC(=O)N3CCN(C(=O)c4ccco4)CC3)n2)cc1)c1ccc(F)cc1 | -9% | -12 | -2 | -9 | -4.3 | 24%
COc1ccc(NC(=O)Cn2c(CCC(=O)O)ccc2-c2ccc(C)cc2)cc1 | -17% | 2 | -3 | 3 | 6.7 | -2%
O=C(NCCC1=CCCCC1)c1cc(S(=O)(=O)N2CCOCC2)ccc1F | -2% | 5 | 0 | -2 | -1.8 | -14%[15.4 µM]
Cc1cccc(OCCCC(=O)NCC(=O)Nc2cccc(C)c2C)c1 | -3% | -2 | -3 | 8 | 0.5 | ?
COC(=O)c1cc2sccc2n1CC(=O)Nc1ccc(OC)c(OC)c1OC | 6% | -17 | -13 | -2 | -1.8 | -7%
C[C@H](CO)N1C[C@H](C)[C@@H](CN(C)C(=O)NC2CCCCC2)Oc2c(cccc2N(C)C)C1=O | 10% | -3 | 22 | 34 | -0.9 | nt

(list continues)
SMILES | gsp antag | D2 potentiator | Six1-Eya2 inh | CtBP-E1A inh | D2 agonist | gsp ag
CCO[C@@H]1OC(C(=O)NC2CC2)=C[C@H](c2coc3ccccc3c2=O)[C@H]1CCCO | 5% | -16 | 1 | 2 | -1.3 | nt
O=C(c1cccn(Cc2ccc(C(F)(F)F)cc2)c1=O)N1CCOCC1 | -7% | -7 | -1 | nt | 4.0 | 4%[15.4 µM]
O=c1[nH]n(CC2COC3(CCCCC3)O2)c(=O)c2ccccc12 (stereo not given) | 0% | -11 | -2 | 9 | 1.5 | 1%
N#CCn1nnc(-c2ccc3c(c2)OCO3)n1 | 3% | -6 | 22 | 0 | -0.3 | -7%
CC1CN(CC(O)COc2ccc(C(C)C)cc2)CC(C)O1 (stereo not given) | 11% | -2 | 3 | 1 | 5.1 | 24%
CC(=O)c1c(-c2ccccc2)c2cc(Cl)ccc2n(C)c1=O | -15% | -1 | -4 | 0 | 0.5 | -26%
Cc1ccc(NC(=O)/C(=C\c2ccccc2)NC(=O)/C=C/c2ccccc2)cc1 | 2% | -21 | -3 | 2 | -3.8 | -2%
CCOc1ccccc1NC(=O)C(CC(C)C)NC(=O)C1CCCCC1 (stereo not given) | -4% | 8 | 2 | 2 | -2.9 | -32%[inhibitor]
CCN(CC)S(=O)(=O)c1ccc2c(c1)nc(CCC(=O)OCC(=O)Nc1cc(Cl)cc(Cl)c1)n2C | ? | -8 | -2 | 2 | -4.0 | -1%[15.4 µM]
C=CCc1cc(OC)ccc1OCCOCCN1CCc2ccccc2C1 | 3% | -18 | -10 | -5 | 0.2 | 7%[15.4 µM]
N#C/C(=C\c1ccc(O)c(O)c1)C(=O)Nc1cccc2ncccc12 | -17% | -12 | ? | ? | -1.3 | 0%
COc1ccc(CCNC(=O)c2ccc3c(c2)OCO3)cc1 | 5% | -7 | 6 | 1 | -5.2 | 5%
Cc1cc(Br)c(S(=O)(=O)n2nnc3ccccc32)cc1C | 7% | -8 | 11 | -1 | -0.9 | ?
CCc1ccc(OCC(=O)N2c3ccccc3CCc3ccccc32)cc1 | -16% | -22 | 0 | 4 | -1.8 | ?

Assay outcomes deposited in PubChem by National Center for Advancing Translational Sciences (NCATS).
